miR-21 FLuc: qHTS Assay for Modulators of miRNAs and/orActivators of miR-21. HeLa miR-21 FLuc reporter, luciferase, 48 h. AID 2288, 2010. 340,000 tested, under 10 active. Potency, µM (series often up to 38.3 µM), for inactives: at the top dose reporter change, positive = more light; active = well fitted rising curve with a large enough effect; inconclusive = small, poorly fitted or top-dose-only effect; inactive = no such curve, though single readings can be large or run the other way;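 further: % of control where 0% means no effect; miR-21 action dims this reporter so a rising signal means less miR-21 action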
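HeLa cells endogenously expressing miR-21, stably carrying CMV-driven firefly luciferase with a downstream miR-21 binding site, 2000 cells/well. Titrations up to approximately 40 uM, 48 hours; luciferase luminescence read.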
Rango release inh: qHTS Assay for Inhibitors of RanGTP induced Rango (Ran-regulated importin-beta cargo) - Importin beta complex dissociation; Potency, µM (titrated, usually from 46.1 µM), for inactives: at the highest dose activity change, negative = inhibition; actives 0.071% (n = 340,000); Biochemical FRET Rango-importin beta, RanGTP-induced dissociation; Snurportin-1 (Homo sapiens) + GTP-binding nuclear protein Ran (Homo sapiens) + Importin …; active means falling FRET ratio curve, often poorly fitted, with flat reads before Ran was added; inconclusive means other falling curves, or compound fluorescence or quenching; inactive means flat or rising ratio curve;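 further: potency means the concentration at half of the fitted maximal effect; % of control where 0% means no effect; nearly all actives have a fitted effect of over 45% in size; -100% = wells without RanGTP and RCC1; the record marks most hits as doubtful in a second field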
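Two FRET readings bracket the reaction: one 5 min after compound meets Rango–importin beta, another 45 min after RanGTP-RCC1 (0.6 uM Ran, 0.2 uM RCC1, 2 mM GTP) is added. Only the second defines inhibition.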
GLA inh pH 4.5: qHTS Assay for Inhibitors of Human alpha-Galactosidase at pH 4.5. 230,000 tested, under 10 active. purified enzyme, 4-MU-alpha-Gal fluorescence, pH 4.5. Alpha-galactosidase A (Homo sapiens), P06280. activity change, negative = inhibition, % at 105 µM; inconclusive = small, poorly fitted or top-dose-only inhibition, or a rising curve; inactive = flat fitted curve, though single readings scatter; no compound was filed as active;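 further: 0% = full activity with enzyme and -100% = basal without enzyme; dose as in the result columns while the protocol names 77 µM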
Target sequence (P06280 whole entry, looked up): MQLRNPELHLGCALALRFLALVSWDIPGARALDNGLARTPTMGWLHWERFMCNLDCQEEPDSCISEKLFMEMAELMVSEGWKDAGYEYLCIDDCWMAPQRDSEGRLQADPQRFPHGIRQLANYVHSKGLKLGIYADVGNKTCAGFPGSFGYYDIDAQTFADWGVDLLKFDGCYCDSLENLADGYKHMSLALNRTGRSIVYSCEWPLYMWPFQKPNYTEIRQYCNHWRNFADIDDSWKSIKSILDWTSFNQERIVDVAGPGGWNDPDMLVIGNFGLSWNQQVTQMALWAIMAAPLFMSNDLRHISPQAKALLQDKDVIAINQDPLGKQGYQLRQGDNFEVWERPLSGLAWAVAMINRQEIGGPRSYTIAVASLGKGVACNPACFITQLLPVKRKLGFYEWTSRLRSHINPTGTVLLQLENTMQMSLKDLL
Rango complex inh: qHTS Assay for Inhibitors of Rango (Ran-regulated importin-beta cargo) - Importin beta complex formation; actives 0.031% (n = 340,000); Rango CFP/YFP FRET sensor + importin beta, 45 min; Importin subunit beta-1 (Homo sapiens), Q14974; Potency, µM (highest dose often 92.2 µM), without a hit: at the highest dose inhibition of complex formation; active = rising FRET ratio curve, often small or poorly fitted; inconclusive = mostly compound fluorescence or quenching in the first reads; inactive = flat curves in all reads;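 further: potency means the concentration at half of the fitted maximal effect; 0% = DMSO wells and 100% = buffer wells lacking importin beta; nearly all actives have a fitted effect of over 15% in size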
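FRET biosensor (snurportin 1 IBB flanked by EYFP and cerulean), 50 nM, with compound 5 min, then 0.125 microM importin beta in PBS, 1 mM DTT, 0.02% Tween-20, 0.1% BSA. CFP/YFP ratio read after 45 min at room temperature; pre-read flags interference.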
* = called active by the depositor; u = inconclusive; x = not tested or not shown; & = joins results of further samples. Only part of the results is shown; rates above refer to the full screens.

miR-21 FLuc,Rango release inh,GLA inh pH 4.5,Rango complex inh,SMILES
-19%,2%,-3,-2.1%,CN1CCN(C(=O)C2CC(c3ccc(F)cc3)=NO2)CC1 (stereo not given)
x,-2%,x,-5.3%,COc1ccccc1N1CCN(C(=O)c2cc3c(=O)n4ccccc4nc3s2)CC1
-16%,1%,-5,-0.5%,COc1cc(OC)c(-c2nc3cnccc3n2C)cc1OC
-4%,10%,-1,-3.2%,CN(C)c1nnnn1-c1ccc(Oc2ccccc2)cc1
-57%,u,-12,u,Nc1c(C=C2C=CC(=O)C=C2)c(=O)nc2snc(SCc3ccccc3)n12
-4%,4%,-4,1.4%,COC(=O)c1ccccc1NC(=S)N(Cc1ccc2c(c1)OCO2)Cc1cc2cc(C)ccc2[nH]c1=O
-3%,-10%,0,-1.9%,COc1ccc(CN2C(=O)[C@@H]3C(c4ccc(F)cc4)=NO[C@@H]3C2=O)cc1
-1%,21µM*,x,u,COC(=O)C(C)Oc1ccc2c(c1)O/C(=C\c1ccco1)C2=O (stereo not given)
-41%,-6%,2,u,Cc1ccc(-n2c(C)nc3oc4ccccc4c(=O)c3c2=O)cc1
0%,-3%,3,-1.1%,O=C(COC(=O)c1ccc(S(=O)(=O)NCc2ccco2)cc1)Nc1ncc(Cl)cc1Cl
0%,7%,-8,-4.1%,CCN(CC)S(=O)(=O)c1cc(NC(=O)COC(=O)CCC(=O)c2ccc(F)cc2)ccc1C
-39%,-7%,-3,1.7%,O=C(c1cccs1)N1CCn2c1nc1ccccc12
x,-16%,x,0.7%,Nc1c(Br)cc(Br)c2c1C(=O)c1c(cccc1S(=O)(=O)O)C2=O
0%,12%,0,-0.7%,CCSc1nc2c([nH]c3ccccc32)c(=O)n1C
0%,-10%,4,-0.1%,CCCNC(=O)Cn1cnc2sc(C(=O)Nc3cc(OC)c(OC)c(OC)c3)c(C)c2c1=O
1%,-4%,x,-0.4%,CCOc1ccccc1NC(=O)c1ccc(CN2CCc3ccccc3C2)cc1
-5%,1%,-8,-4.1%,O=C(CN1c2cccc3cccc(c23)S1(=O)=O)N1CCOCC1
-8%,-2%,x,-1.0%,COc1ccc(N2CCN(C(=O)CCc3ccccc3)CC2)cc1
-4%,17%,10,-0.5%,CCOC(=O)N1CCN(C(=O)c2ccc3nc(C)sc3c2)CC1
-1%,5%,0,0.5%,CC(C)CN(CC(C)C)S(=O)(=O)c1cc([N+](=O)[O-])ccc1N1CCCCCC1
x,0%,x,3.1%,CC1CCCCC1NS(=O)(=O)CCNC(=O)c1ccc2c(c1)OCO2 (stereo not given)
-3%,-11%,-7,-1.8%,COc1ccc(C2C(C(=O)N3CCOCC3)CCC(=O)N2c2ccc(OC)cc2)cc1 (stereo not given)
-49%,-8%,-5,0.2%,Cc1cc(/C=C(\C#N)C(=O)NC2CC2)c(C)[nH]1
0%,-8%,x,-0.3%,COc1cc(OC)c(NC(=O)CCNS(=O)(=O)c2ccc3c(c2)CC(C)N3C(C)=O)cc1Cl (stereo not given)
-10%,-4%,1,-0.6%,COc1ccc(-c2nnn(CC(=O)N3CCN(c4ccccc4OC)CC3)n2)cc1OC
14%,-2%,-4,2.8%,Cc1ccc(NCN2C(=O)C(=O)c3ccccc32)nc1
-1%,-11%,0,5.6%,C=CCc1cc(/C=C2/NC(=O)N(CC)C2=O)cc(OCC)c1OCc1ccc(C(=O)O)cc1
-4%,-20%,x,-2.0%,CC(OC(=O)c1ccc2c(=O)n3c(nc2c1)CCC3)C(=O)NC1CCCCC1C (stereo not given)
x,-16%,x,2.3%,C/C(=N\OCC(=O)OCC(=O)NC(=O)c1ccc(OC(F)F)cc1)c1ccc2c(c1)OCO2
-4%,18%,3,0.2%,COc1cc(C2CC(=O)c3cnc(NC(C)=O)nc3C2)cc(OC)c1OC (stereo not given)
-22%,-3%,-3,u,COc1cccc(N=c2oc3ccccc3cc2-c2nc3ccccc3[nH]2)c1
1%,u,-11,-3.0%,O=C(NCCO)C(F)(F)C(F)(F)C(F)(F)OC(F)(C(=O)NCCO)C(F)(F)F (stereo not given)
0%,1%,0,-2.4%,Fc1ccccc1Cc1noc(CN(Cc2ccccn2)CC2CCCO2)n1 (stereo not given)
-32%,-4%,x,-0.8%,C=CCn1cccc(C(=O)Nc2ccc(F)cc2)c1=O
-2%,45%,11,0.1%,O=C(Nc1cccc(S(=O)(=O)N2CCOCC2)c1)c1cnccn1
2%,1%,x,9.4%,O=C(CCc1ccccn1)N1CCCC(Nc2ccc(F)cc2)C1 (stereo not given)
-11%,x,4,x,Cc1nn(C)cc1CNC(=O)C1C2CCC(O2)C1C(=O)O (stereo not given)
-16%,-5%,8,1.9%,O=C(NCc1ccccc1)N1CCn2c(nc3ccccc32)C1
7%,x,-6,x,O=C1C=CC(=O)N1c1ccc(Sc2ccc([N+](=O)[O-])cc2)cc1
-9%,-17%,3,-4.1%,CCCC(=O)Nc1cc(=O)n(C)c(=O)n1C
-16%,-2%,x,u,C[n+]1c(/C=C/c2ccc(O)cc2)ccc2ccccc21
-8%,8%,-9,0.4%,COc1ccc(-c2cnc(OC(C)(C)C)nc2OC(C)(C)C)cc1OC
-1%,-3%,12,-3.8%,CC(C)c1ccc(NS(=O)(=O)c2cn(C)c(=O)n(C)c2=O)cc1
4%,1%,4,-0.2%,Cc1ccc(S(=O)(=O)Nc2ccc3c(c2)nc(CN2CCCC2)n3C)cc1
-4%,-2%,x,1.3%,O=C1C(=O)N(CCN2CCOCC2)C(c2cccc(Cl)c2)/C1=C(/O)c1ccc2c(c1)OCO2 (stereo not given)

Molecules above that have a thiophene ring, fused or not (3):
miR-21 FLuc,Rango release inh,GLA inh pH 4.5,Rango complex inh,SMILES
x,-2%,x,-5.3%,COc1ccccc1N1CCN(C(=O)c2cc3c(=O)n4ccccc4nc3s2)CC1
-39%,-7%,-3,1.7%,O=C(c1cccs1)N1CCn2c1nc1ccccc12
0%,-10%,4,-0.1%,CCCNC(=O)Cn1cnc2sc(C(=O)Nc3cc(OC)c(OC)c(OC)c3)c(C)c2c1=O

(cont.)
miR-21 FLuc,Rango release inh,GLA inh pH 4.5,Rango complex inh,SMILES
x,14%,x,3.3%,CSc1nnnc2ccccc12
-1%,-9%,-1,-3.5%,O=C(C1CCCCC1)N1CCC(c2nc3ccccc3[nH]2)CC1
-6%,-4%,7,u,CCc1nnc(NC(=O)[C@@H](NC(=O)c2cccc(C)c2)C(C)C)s1
-1%,-7%,x,-2.5%,CCCCOc1ccc(/C(O)=C(\C#N)c2nc3ccccc3[nH]2)cc1
-13%,3%,-1,1.9%,CC(C)NCC(O)COCCOc1ccc(C(C)(C)C)cc1 (stereo not given)
8%,-10%,-10,0.4%,CCC(CC)C(=O)Nc1nc(-c2ccc3c(c2)CCN3C(=O)C2CC2)c(C)s1
-2%,3%,0,-1.1%,COC(=O)c1cc2nc(-c3ccc(OC)cc3)cc(C(F)(F)F)n2n1
2%,-4%,1,1.9%,CCOC(=O)CSC1=C(C#N)C(c2ccc(Cl)cc2)C(C(=O)OC)C(=O)N1 (stereo not given)
-67%,28%,0,-0.6%,COc1ccccc1NC(=O)COc1ccc(CO)cc1Cl
x,-9%,x,0.2%,CCN(CC)S(=O)(=O)c1ccc(N2CCOCC2)c(NC(=O)c2ccc(=O)[nH]c2)c1
4%,x,-1,x,Cc1ccnc(NC(=O)CCCOc2ccc(Cl)cc2C)c1
-23%,u,u,u,CN(C(=O)NC(=O)C1=C(N2CCOCC2)/C(=C/c2ccccc2)CC1)S(C)(=O)=O
0%,0%,5,-3.1%,Cc1ccc(S(=O)(=O)Cc2ccc(C(=O)NCCCN3CCCC3=O)o2)cc1
x,4%,x,0.0%,O=C(COc1ccc(Cl)cc1)Nc1cccc(-c2ccc(N3CCOCC3)nn2)c1
-2%,6%,0,4.6%,Nc1nc(/C=C/c2ccc(F)cc2)nc(-c2ccccc2O)n1
-59%,8%,x,-1.0%,CC1CCCCN1C(=O)CSc1nnc(-c2ccccc2F)o1 (stereo not given)
-14%,17%,-14,4.3%,CC(=O)c1ccc(NC(=S)N2CCC(Cc3ccccc3)CC2)cc1
2%,-6%,5,-7.1%,O=C(Nc1ccc(Br)cc1)Nc1ccccc1Cl
1%,2%,x,0.7%,COc1ccc(CCN2CCCn3c2nc2c3c(=O)n(CC(N)=O)c(=O)n2C)cc1OC
-27%,0%,-1,-5.7%,CCCN1C2=C(C(=O)CC(C)(C)C2)C(c2ccc(F)cc2)C2=C1c1ccccc1C2=O (stereo not given)
-19%,18%,-11,-3.2%,Fc1ccccc1-c1nnc2c3ccccc3nc(N3CCOCC3)n12
x,6%,x,u,CC1CCC2(CC1)NC(=O)N(CC(=O)N1CC(C)CC(C)C1)C2=O (stereo not given)
0%,-16%,-2,-3.6%,Cc1ccc(C2NC(=O)Cc3ccccc32)cc1 (stereo not given)
-21%,-9%,10,2.0%,CSc1ccccc1NC(=O)CSCc1ccccc1Br
x,0%,x,4.9%,CCc1ccccc1OCC(=O)Nc1ccc(F)c(S(=O)(=O)N2CCOCC2)c1
4%,0%,-15,0.0%,CCOC(=O)C1CCCN(c2c(C(=O)c3ccccc3)cnc3ccccc23)C1 (stereo not given)
x,19%,x,0.0%,CN(C)c1cccc(-c2csc(N3CCC(C(N)=O)CC3)n2)c1
x,-2%,x,3.8%,CN(CC(=O)Nc1ccc(OC(F)(F)F)cc1)C(=O)c1ccc(N2CCCC2=O)cc1
0%,-7%,x,-3.5%,CC(C)C(=O)NNC(=O)CSc1ncnc2c1cnn2-c1ccccc1Cl
-12%,-4%,-11,0.2%,O=C(COc1cccnc1[N+](=O)[O-])Nc1cccc(S(=O)(=O)N2CCOCC2)c1

Among those listed so far, these contain a cyano group:
miR-21 FLuc,Rango release inh,GLA inh pH 4.5,Rango complex inh,SMILES
-49%,-8%,-5,0.2%,Cc1cc(/C=C(\C#N)C(=O)NC2CC2)c(C)[nH]1
-1%,-7%,x,-2.5%,CCCCOc1ccc(/C(O)=C(\C#N)c2nc3ccccc3[nH]2)cc1
2%,-4%,1,1.9%,CCOC(=O)CSC1=C(C#N)C(c2ccc(Cl)cc2)C(C(=O)OC)C(=O)N1 (stereo not given)

Other entries.
miR-21 FLuc,Rango release inh,GLA inh pH 4.5,Rango complex inh,SMILES
-1%,-2%,0,-0.1%,O=C(COC(=O)/C=C/c1ccco1)NCc1ccccc1Cl
4%,-17%,x,1.4%,Cc1ccc(S(=O)(=O)N2CCC(C(=O)NCC3CCCCC3)CC2)cc1
x,-5%,x,-1.5%,O=C(CNC(=O)c1n[nH]c2ccccc12)Nc1ccc(F)c(F)c1F
-41%,10µM*,u,u,CNc1sc(C(=O)c2cccs2)c(N)c1-c1nc2ccccc2s1
x,1%,x,-0.4%,Cc1ccc(S(=O)(=O)N2CCOCC2)cc1C(=O)Nc1cc(S(=O)(=O)N2CCCCC2)ccc1O
x,3%,x,0.4%,CNS(=O)(=O)c1ccc(C(=O)NCC(=O)NC(C)c2cccs2)cc1 (stereo not given)
x,0%,x,-1.9%,CCc1noc(C)c1C(=O)N(C)CC(=O)Nc1cccc(OC)c1
-10%,-8%,x,-1.2%,COc1ccc(OC)c(C(=O)NC(CC(N)=O)c2ccc(NCCOc3ccccc3)c([N+](=O)[O-])c2)c1 (stereo not given)
6%,4%,x,3.6%,CS(=O)(=O)c1nc(S(=O)(=O)c2ccc(Cl)cc2)c(N2CCCCC2)s1
2%,x,-8,x,COc1ccc(COC(=O)c2ccc3c(=O)n4c(nc3c2)CCC4)cc1F
x,-7%,x,2.0%,CC1CCCCC12NC(=O)N(CC(=O)Nc1ccc(S(=O)(=O)Nc3ncccn3)cc1)C2=O (stereo not given)
x,-1%,x,1.7%,CN(CC(=O)Nc1ccc(Cl)c(Cl)c1)C(=O)CNC(=O)C1CCCCC1
-12%&-8%,-3%,x,-1.2%,COc1ccc(Cl)cc1NC(=O)CCn1c(=O)oc2ccccc21

From PubChem
